Screening results as filed in PubChem.
RN4220 kill – kills Staphylococcus aureus RN4220; actives 0.33% (n = 330,000); S. aureus RN4220 growth, OD600, 16 h; inhibition, % (concentration not given with the values);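 active means z-score of -3 or lower and OD600 up to 0.18 on both plates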;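 further: plate controls were untreated cells for no effect and reference antibiotic for full effect; stock transfer was 100 nL into about 80 µL; one replicate is shown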
Mtb hypoxia rep – inhibitors of hypoxia-regulated fluorescent reporter in Mycobacterium tuberculosis. M. tuberculosis hypoxia-regulated fluorescent reporter, fluorescence. actives 0.1% (n = 300,000). fluorescence inhibition, % (concentration not given with the values). AID 1159583;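 active means 35 to 45% if threefold the growth effect, above 45% if 1.5-fold the growth effect; inactive means the rest, general growth blockers included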;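 further: wells of about 50 µL received 100 nL stock; 0% = vehicle wells and 100% = reference inhibitor wells; whole bacteria with a GFP reporter of the hypoxia response; strong numbers were not always called active; many hits fall short of the cut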
BJeLR lethal – kills HRASV12-expressing BJeLR cells; actives 0.17% (n = 300,000); BJeLR (HRASV12) viability, CellTiter-Glo ATP luminescence, 48 h; reference of the scale not given here; inhibition, % (test concentration not listed); AID 1554;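 active means replicate mean above 50%; inconclusive means above 50% but judged a plate artefact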;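 further: 50 nL library stock added to about 25 µL; numbers are from one replicate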
Autofluor counter – compound fluorescence in toxin protease inhibitor counterscreen; compound autofluorescence counterscreen, microsphere flow cytometry; active compounds read high; fluorescence intensity (test concentration not listed); actives 3.1% (n = 360,000);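 active means at least 3 SD above the mean of all compounds, about 16000 in these data; inconclusive means too few beads counted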;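 further: 100 nL of 1 mM stock went into each well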
PrP 5UTR inh – inhibition of PrP 5' UTR reporter expression | cell-based PrP 5' UTR mRNA reporter, plate reader | actives 0.35% (n = 340,000) | inhibition, % (test concentration not listed);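 active means every replicate at 50% or more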;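 further: 0 = median of the neutral control wells; tested in H4 reporter cells; numbers are from one replicate; inactives centre near -14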
ugtP null kill – kills S. aureus RN4220 lacking UgtP. S. aureus RN4220 ugtP deletion, OD600 growth, 16 h; some inactives read as strong as hits. growth inhibition, % (no concentration beside the values). actives 0.54% (n = 330,000);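 active means z-score under -3 and OD600 up to 0.15 on both plates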;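 further: plate controls were untreated wells for no effect and antibiotic for full effect; wells of about 80 µL received 100 nL stock; the first replicate is given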
Mtb hypoxia rep growth – second read-out of Mtb hypoxia rep, no call of its own (marks repeat the call); growth inhibition, %; measured here: M. tuberculosis growth (absorbance);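 0% = vehicle and 100% = reference antibiotic; read after six days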
The depositor's hits bear a star; ? = inconclusive; · = no result given; & = joins results of further samples.

SMILES	RN4220 kill	Mtb hypoxia rep	Mtb hypoxia rep growth	BJeLR lethal	Autofluor counter	PrP 5UTR inh	ugtP null kill
CCNC(=O)c1sc(=S)n(-c2ccc(C)cc2)c1N	2.8	9	3	3	7935	-20	8
COc1cccc(NC(=O)C(C#N)Cc2ccncc2)c1 (stereo not given)	0.9	2	-7	-4	19544*	-6	-4
CCOc1ccc(NC(=O)N2CCC(NC(=O)c3ccco3)CC2)cc1	5.6	14	9	-13	8193	-12	-7
COc1cc(CNCCSc2nnnn2C)cc(Br)c1OCc1ccccc1F	4.3	-6	7	3	2516	-12	-3
Cc1c(C(=O)N2CCN(c3ccccc3)CC2)oc2c(F)cccc12	-3.0	4	0	-8	4868	-28	12
Cc1cnc(C)c(N2CCN(Cc3nc(-c4ccccc4)no3)CC2)n1	1.6	2	-4	-1	3520	-18	8
CCOc1ccc(C2NCCc3cc(OC)c(OC)cc32)cc1OC (stereo not given)	-1.7	-2	-2	-8	3873	2	-5
CN(C(=O)c1ccccc1C(=O)OCC(=O)c1ccc(F)c(F)c1)C1CCCCC1	10	4	3	·	?	-14	1
O=C(NCCCc1ccccc1)N1CCOCC1	6.2	-4	3	15	4031	-1	1
O=C(NCCc1ccccn1)C(F)(F)C(F)(F)C(F)(F)C(F)(F)C(F)(F)C(F)(F)C(F)(F)C(F)F	-2.5	12	8	8	8114	-23	0
Cc1cc(NS(=O)(=O)c2ccc(Br)s2)no1	5.9	0	5	-5	9786	-19	-9
COc1ccccc1OCC(=O)Nc1ccccc1C(=O)NC1CC1	-0.5	-4	2	4	3859	-28	-6
Cn1c(=O)c2c(nc(CN3CCN(c4ccccc4)CC3)n2Cc2c(F)cccc2Cl)n(C)c1=O	-1.1	-6	-1	-6	22170*	-17	-6
CS(=O)(=O)N1Cc2ccccc2CC1C(=O)O (stereo not given)	2.3	10	4	·	5449	-2	4
CC(=O)Nc1cccc(/C(C)=N/NC(=O)c2ccccc2Cl)c1	·	·	·	-4	10720	-23	·
CCn1c(O)c(N=NC2=NC(=O)CS2)c2cc(C)ccc21	-0.5	0	8	-4	3232	-7	-24
CC(C)CC(=O)Nc1nc(-c2ccc(S(=O)(=O)N3CCOCC3)cc2)cs1	-2.1	-3	-3	6	5319	-12	-2
O=C(NNC(=O)c1ccccc1F)c1ccco1	4.1	2	3	7	3209	-22	8
O=C(CN1N=C(c2ccc(Cl)cc2)CCC1=O)NCCN1CCc2ccccc2C1	3.9	21	1	0	2562	-11	1
Cc1cccc(NC(=S)NC2CC3CCCC(C2)N3Cc2ccccc2)c1C (stereo not given)	5.4	1	7	-10	3888	-18	13
O=C(c1ccccc1Cl)N1CCN(Cc2ccc3c(c2)OCO3)CC1	-2.7	23	18	-5	3899	-14	13
CCn1c2ccccc2c2n[nH]c(=S)nc21	9.7	18	4	2	3607	-7	15
Cc1ccc2c(c1)c1c3n2CCNC3CCC1 (stereo not given)	9.2&1.9	9&24	4&15	1	6228&4466	-5&-16	-8&4
Cc1noc(C)c1C(=O)NCc1ccccc1	5.6	·	·	3	2748	-38	12
COc1ccccc1N1CCN(N=Cc2ccc(Cl)c([N+](=O)[O-])c2)CC1	-3.0	-4	-19	·	·	·	82

Whole records as entered above.
CCn1c2ccccc2c2n[nH]c(=S)nc21 as listed: RN4220 kill = 9.7; Mtb hypoxia rep = 18; Mtb hypoxia rep growth = 4; BJeLR lethal = 2; Autofluor counter = 3607; PrP 5UTR inh = -7; ugtP null kill = 15
Cc1cnc(C)c(N2CCN(Cc3nc(-c4ccccc4)no3)CC2)n1 as listed: RN4220 kill = 1.6; Mtb hypoxia rep = 2; Mtb hypoxia rep growth = -4; BJeLR lethal = -1; Autofluor counter = 3520; PrP 5UTR inh = -18; ugtP null kill = 8

Additional entries.
SMILES	RN4220 kill	Mtb hypoxia rep	Mtb hypoxia rep growth	BJeLR lethal	Autofluor counter	PrP 5UTR inh	ugtP null kill
Cn1c(SCC(=O)N/N=C/c2ccc([N+](=O)[O-])s2)nnc1-c1ccccc1	·	·	·	-6	2414	-60	·
Cc1cccc(-n2ccnc2CN2CCC(CO)(Cc3ccccc3)CC2)c1	3.3	4	-8	-1	4295	-4	7
COc1cccc(C(=O)N2CCN(C3CCC(c4ccccc4)CC3)CC2)c1OC (stereo not given)	-1.3	·	·	·	2245	0	-2
COc1cc(C=Nn2c(C3CCCCC3)n[nH]c2=S)ccc1O	2.4	-3	-3	·	·	·	-11
COc1ccccc1N(CC(N)=O)S(=O)(=O)c1ccc(C)cc1	-0.9	-5	3	11	11785	-20	-4
CCn1c(O)c(/C=C2\C=NN=C2c2ccccc2)sc1=S	-9.1	16	6	11	3593	-22	-17
Nc1nc2ccccc2n1N=Cc1ccc2c(c1)OCO2	5.2	11	15	·	·	·	-2
O=C(OCCN1CCCCC1)c1cc2ccccc2o1	-1.4	-3	-8	-2	3989	-4	-6
CN(C(=O)c1ccc(=O)n(Cc2ccc(Cl)cc2)c1)c1ccccc1	2.6	7	8	4	4062	-12	3
CC(C)c1ccc(OCC(=O)N2CCCN(C)CC2)cc1	5.9	4	0	4	5845	-11	10
CN(Cc1ccon1)C(=O)CC1C(=O)NCCN1Cc1cccc(Oc2ccccc2)c1 (stereo not given)	3.2	9	14	4	3507	-9	6
COc1ccc(/C=C/C(=O)NCC(=O)NN=C(C)Cc2ccccc2)cc1	0.1	-3	14	·	·	·	0
COc1ccccc1C(=O)NCC(=O)NCCC(c1ccccc1)c1ccccc1	-3.8	-8	1	·	3767	2	7
C[C@@H]1C(=O)OC[C@H]1NC(=O)OCc1ccccc1	·	·	·	-6	3425	-22	·
O=C(Cc1c(F)cccc1Cl)c1ccc(O)cc1O	4.7	19	8	7	7607	-19	-13
CN=C(NC1CCCCC1)c1ccc([N+](=O)[O-])cc1	4.8	8	3	18	4049	-12	3
CCOCCCN(Cc1cc2cc(C)cc(C)c2[nH]c1=O)C(=O)N(CC)CC	3.7	13	9	4	4455	-18	-7
COc1ccc(/C=C/C(=O)Nc2cc(S(=O)(=O)N3CCOCC3)ccc2N2CCCC2)cc1OC	1.7	6	0	5	3426	30	7
CCOC(=O)c1c(-c2ccc(C)o2)csc1NC(=O)CN1CCCCC1	-7.5	9	11	-2	4732	-5	4
Cc1ccc(N(C)S(=O)(=O)c2cccc(C(=O)Nc3nnc(C4CC4)s3)c2)cc1	20	0	15	-1	4460	-32	27
COc1cccc(N2CCN(C(=O)c3oc4ccccc4c3NC(=O)Cc3ccc(OC)c(OC)c3)CC2)c1	-3.6	12	-1	-3	4878	-14	3
CCn1c(C=Nc2nc3ccccc3n2C)nc2ccccc21	4.4	20	5	·	·	·	7
O=C(Nc1c(Cl)cc(Cl)cc1C(=O)NCCN1CCOCC1)c1cccc([N+](=O)[O-])c1	-1.6	3	-2	5	2526	-26	5
O=C(CN1CCOCC1)N/N=C/c1ccc(C(=O)O)cc1	·	·	·	6	2606	-11	·
COc1ccccc1/C=N/NC(=O)CC(=O)NCc1cccnc1	·	·	·	7	6691	-23	·
SMILES	RN4220 kill	Mtb hypoxia rep	Mtb hypoxia rep growth	BJeLR lethal	Autofluor counter	PrP 5UTR inh	ugtP null kill
O=C(O)c1cccc(-c2ccccc2)c1O	2.4	8	10	·	3487	-8	0
CCOc1ccc(NC(=O)c2ccc(NC(=S)NC3CCCCC3)cc2)cc1	-7.0	-19	5	12	3159	5	-1
COc1ccc(N2CCN(C(=O)CS(=O)Cc3nc(-c4ccc(OC)c(OC)c4)oc3C)CC2)cc1 (stereo not given)	2.5	9	12	0	5466	-18	11
CN(C)C(=O)Oc1ccc(Br)c2ccccc12	2.7	·	·	-2	3919	-12	7
O=C(NCc1ccco1)c1nnc(Cc2ccc(Cl)cc2)o1	1.5	17	17	-1	5169	-31	9
c1cncc(CNC2CCCC2)c1	4.7	-2	-8	·	5072	-29	6
CC(=O)Nc1cccc(C(=O)NC2CCCc3c2cnn3-c2ccccc2F)c1 (stereo not given)	4.4	10	7	1	4394	-24	6
CCn1cc(C(=O)OCC(=O)Nc2cccc(Cl)c2Cl)c(=O)c2ccc(C)nc21	6.0	15	3	0	4648	-27	4
Cc1cc(N2CCC(C)CC2)nc2ccc(N3C(=O)CCC3=O)cc12	13	·	·	-2	2380	-27	6
COc1cccc(/C=N/NC(N)=S)c1OCc1cccc(Cl)c1	·	·	·	-12	2484	-16	·
CCCCNC(=O)c1c(N)n(Cc2ccc3c(c2)OCO3)c2nc3ccccc3nc12	-3.8	1	12	-3	6778	-21	-12
CC(C)(C)OC(=O)c1c(N)n(Cc2ccco2)c2nc3ccccc3nc12	-0.1	1	8	-5	2488	-29	-1
CC(=NNc1nc(C)cc(-c2ccccc2)n1)c1cccc(N)c1	6.9	4	4	·	·	·	-4
CCOC(=O)N1CCN(c2c(NCCN(C)Cc3ccccc3)c(=O)c2=O)CC1	-1.1	7	9	·	5618	-49	3
CCOc1ccc(OCCC(=O)N2CCN(S(=O)(=O)c3ccc(F)cc3)CC2)cc1	2.3	-1	8	-10	5312	-3	2
Cn1nc(C(=O)OCC(=O)Nc2ccc(Cl)cc2Cl)c2ccccc2c1=O	5.1	-9	-7	·	4732	-25	9
CC(=O)Nc1ccc(S(=O)(=O)NCC(=O)OCC(=O)NCc2ccc3c(c2)OCO3)cc1	1.4	1	5	·	4151	-7	3
CN(C=O)CP(=O)(O)CN(C)C=O	·	·	·	2	3184	-13	·
COC(=O)c1cccc(NC(=O)CC2C(=O)NCCN2C(=O)c2ccc(F)cc2F)c1 (stereo not given)	5.4	11	6	-17	5309	-31	9
COc1ccc(S(=O)(=O)N2CCN(C(=O)c3c(C)nn(-c4ccccc4)c3Cl)CC2)cc1	-17	-1	5	5	3447	-20	0
Cc1ccc(NC(=O)CSc2nc(=O)n(CCCN3CCOCC3)c3c2CCCC3)cc1F	6.3	13	-4	-1	6525	-15	14
CC1CCCCN1C(=O)CSc1nnc(Cc2ccccc2)n1C (stereo not given)	1.6	·	·	0	3031	-16	-5
COCC(=O)NCCc1ccc(S(N)(=O)=O)cc1	3.9	9	4	5	9174	-5	11
CC(=O)N1CCN(c2nc(CC(C)C)c3c(c2C#N)CCC3)CC1	·	·	·	17	4764	-3	·
CCCn1c(=O)c(C(=O)NCc2ccccc2Cl)c(O)c2ccccc21	5.3	15	1	-10	4333	-4	31
SMILES	RN4220 kill	Mtb hypoxia rep	Mtb hypoxia rep growth	BJeLR lethal	Autofluor counter	PrP 5UTR inh	ugtP null kill
O=S(=O)(Cc1cc(NCc2ccccc2)nc(-c2ccncc2)n1)c1ccccc1	2.0	-14	-10	0	3899	-2	0
CCOC(=O)N1CCC(NC(=O)Cn2cc3c(n2)CCCCC3)CC1	-0.4	·	·	6	4470	-22	9
CC(C)(C)C(=O)Nc1nnc(-c2ccncc2)o1	2.3	0	0	-11	2049	-7	11
CN1C(=O)C(CC(=O)NC2CCCCC2)N(C)C1=O (stereo not given)	0.8	11	-5	-10	4053	-13	4
COc1cc(CCC(=O)Nc2cnc3ccccc3c2)cc(OC)c1OC	-4.0	16	11	1	3890	-11	1
COC(=O)c1sc2nc(C)c([N+](=O)[O-])c(C)c2c1N	13	6	1	0	2034	5	-6
CCCCCCC1CC(/C(C)=N\NC(N)=O)OC1=O (stereo not given)	·	·	·	4	2640	-7	·
Cc1ccc(S(=O)(=O)Oc2ccccc2N2C(=O)C3CC=CCC3C2=O)cc1 (stereo not given)	7.7	2	9	1	5223	2	2
COc1ccccc1NS(=O)(=O)c1ccc(NN=C/C=C/c2ccccc2[N+](=O)[O-])c([N+](=O)[O-])c1	2.2	-17	-14	·	·	·	-7
CC1(C)C2CC=C(/C=N/NC(=O)C3CC3)C1C2 (stereo not given)	·	·	·	3	4263	-8	·
Cc1ccc(S(=O)(=O)n2nccc2-c2c(-c3ccccc3)noc2C)cc1	-2.8	7	6	27	4180	·	14
CC(C)c1ccc(N2C(=O)CSC23C(=O)N2CCCc4cccc3c42)cc1 (stereo not given)	3.5	6	5	-3	11275	-12	-1
CCN(c1ccccc1)S(=O)(=O)c1cccc(C(=O)NCc2cccnc2)c1	5.4	3	1	8	4194	5	1
Cc1ccc(/C=N/NC(=O)c2nnn(-c3nonc3N)c2-c2ccc3c(c2)OCO3)s1	·	·	·	1	5319	-20	·
O=c1c2c(nc3cc(-c4cccc(Cl)c4)[nH]n13)CCC2	1.5	18	16	5	10437	·	-10
O=C1c2cccc3cc(Br)cc(c23)C(=O)N1Nc1ccc(Br)cc1	2.0	13	7	6	2661	-65	-5
